GIV Gai3 FP – GIV-Galpha-i interaction inhibition; Galpha-i3/FITC-GIV peptide fluorescence polarization, 90 min; stronger effect = lower value; scaled: aluminum fluoride 0%, vehicle 100%; percent of control (FP), % (no concentration beside the values); 210,000 tested, 0.42% active; AID 1224905;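 active = replicate mean at 85% of control or lower, very high polarization wells dropped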;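 note: wells of about 15 µL received 100 nL stock; the first replicate is given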
Target sequence (P08753 whole entry, looked up): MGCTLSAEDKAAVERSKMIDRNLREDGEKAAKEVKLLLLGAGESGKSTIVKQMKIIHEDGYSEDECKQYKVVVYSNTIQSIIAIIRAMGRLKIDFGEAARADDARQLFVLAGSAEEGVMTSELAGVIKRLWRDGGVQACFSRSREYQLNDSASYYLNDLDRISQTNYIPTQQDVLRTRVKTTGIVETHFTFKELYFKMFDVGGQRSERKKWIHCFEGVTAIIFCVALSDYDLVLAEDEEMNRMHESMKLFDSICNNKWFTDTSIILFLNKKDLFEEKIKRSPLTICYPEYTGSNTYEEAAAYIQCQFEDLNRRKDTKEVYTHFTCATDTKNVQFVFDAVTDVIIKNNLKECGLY
Sa growth inh – blocks Staphylococcus aureus growth; S. aureus RN4220 growth, OD600, 20 h, 42 °C; stronger effect = lower value; relative growth, % (test concentration not listed); 170,000 tested, 0.53% active; AID 720641;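 active = growth at 42 °C up to 50% and 20 or more points under that at 30 °C, or under 10% at both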;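 note: 300 nL library stock went into each well; scaled to the means of positive and negative controls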
HCMV NEC inh – cytomegalovirus nuclear egress complex inhibition. HTRF UL50-UL53 interaction, normalized percent inhibition. inhibition, % (test concentration not listed). 190,000 tested, 0.15% active. AID 1918969;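 active = both replicates at 50% or more, plus weaker picks with an unusually low signal ratio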;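 note: stock transfer was 100 nL into about 20 µL; 0% = negative control wells and 100% = wells with untagged competitor protein; inactives centre near -12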
Sa growth inh second temp – further read-out of Sa growth inh, marked with its call; relative growth, %; measured here: growth at 30 °C;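 optical density after 20 h as mean of two plates; 100% = untreated growth and lower means inhibition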
An asterisk follows results filed as active; . = not tested or not shown; & = joins results of further samples.

A first look, 2 compounds:
mol,GIV Gai3 FP,Sa growth inh,Sa growth inh second temp,HCMV NEC inh
COc1cccc(C(=O)Nc2cccc(C(=O)OCc3cc(=O)n4nc(C(C)C)sc4n3)c2)c1,100.5,96.1,96.1,.
O=C1c2ccccc2C(=O)c2cc(S(=O)(=O)Nc3ccc(C(=O)N4CCOCC4)cc3)ccc21,93.2,.,.,-151.2

All compounds of this part, from the first entry:
mol,GIV Gai3 FP,Sa growth inh,Sa growth inh second temp,HCMV NEC inh
COc1cccc(C(=O)Nc2cccc(C(=O)OCc3cc(=O)n4nc(C(C)C)sc4n3)c2)c1,100.5,96.1,96.1,.
O=C1c2ccccc2C(=O)c2cc(S(=O)(=O)Nc3ccc(C(=O)N4CCOCC4)cc3)ccc21,93.2,.,.,-151.2
COc1cccc(C(=O)NCC(=O)NN)c1,99.7,106.6,92.8,-1.7
O=C(Nc1ccccc1Br)C1Nc2cc(F)ccc2S(=O)(=O)N1 (configuration not stated),100.8,.,.,-17.1
CC(NC=O)c1nc2ccccc2n1Cc1ccccc1 (configuration not stated),99.3,107.8,103.5,0.1
COc1ccc2nc(NC(=O)c3nn(C)c4c3COc3ccccc3-4)sc2c1,99.4,.,.,8.1
CCc1noc2nc(C)nc(N3CCCC(C(=O)O)C3)c12 (configuration not stated),97.2,.,.,-28.8
COc1ccc(/C=N/c2c(-c3ccco3)nc3ccccn23)cc1OC,.,101.8,82.1,-48.8
CCOC(=O)C1=CN(c2ccc(C)cc2)C=C(C(=O)OCC)C1c1cccs1,103.5,96.0,103.4,.
CC(C)N(C(=O)CSC1=NCCS1)c1ccccc1,.,62.0,94.0,1.0
O=C(COc1cccc(Cl)c1)NCC(c1ccccc1)c1c[nH]c2ccccc12 (configuration not stated),109.8,.,.,-7.0
O=C(NCC(c1cccs1)S(=O)(=O)c1cccs1)c1ccc(C(F)(F)F)cc1 (configuration not stated),102.2,106.6,78.9,.
O=C(NCCn1c(CCc2ccccc2)nc2ccccc21)Nc1ccccc1Br,105.9,.,.,2.3
N#Cc1ccc(OCC(=O)Nc2ccc(-c3cn4ccsc4n3)cc2)cc1,.,114.8,73.7,-5.0
Cc1ccccc1Nc1c(N)c(=O)oc2ccccc12,106.6,102.1,92.2,-30.6
Cc1ccc(O)c(C(=O)c2cnc3c(c2)CN(CCC(C)C)C(=O)N3)c1,.,82.6,100.1,-0.7
Cc1cc(C)nc(NS(=O)(=O)c2ccc(-n3cccc3)cc2)n1,.,105.2,85.0,-10.1
CCn1cc(C(=O)NCc2ccccc2Cl)c(=O)c2cc(S(=O)(=O)N3CCOCC3)ccc21,94.9,95.5,95.9,-15.4
CCOc1ccc2nc(N3CCN(C(=O)C(C)C)CC3)sc2c1,102.4,107.7,84.3,.
CCOc1ncccc1C(=O)Nc1cc(C(C)(C)C)ccc1OC,.,88.3,95.4,-9.7
CCC(=O)Nc1nc2nc(COC)cc(=O)n2[nH]1,.,95.8,88.1,-6.0
CC(C)N(C(=O)CSc1nncn1-c1ccccc1)c1ccccc1,.,96.8,95.4,-31.1
O=C(Cn1cnc2c(oc3ccccc32)c1=O)Nc1ccccc1C(F)(F)F,108.3,135.4,101.1,.
CCOC(=O)c1ccc(CSc2n[nH]c(C)n2)o1,104.9,100.9,87.9,.
CN1CCN(C(CC(=O)Nc2cccc3ccccc23)C(=O)O)CC1 (configuration not stated),102.3,99.0,94.9,-12.3
O=C(Nc1ccccc1N1CCCC1)c1ccc(CSc2ncn[nH]2)cc1,.,102.3,102.0,-0.7
CCOC(=O)C1=C(C)N=c2s/c(=C/c3ccc(Cl)cc3)c(=O)n2C1c1ccc(OC(C)=O)cc1 (configuration not stated),104.5,.,.,-17.4
O=C(Nc1ncnc2sc3c(c12)CCCC3)c1ccc(F)cc1,.,95.7,85.7,-2.4
c1ccc(-c2csc(Nc3nc(N4CCOCC4)nc(N4CCOCC4)n3)n2)cc1,97.3,.,.,-11.4
CN(C(=O)COC(=O)c1ccc(C#N)cc1)c1ccccc1,.,81.8,94.8,3.1
CCc1ccccc1NS(=O)(=O)c1ccc2[nH]cc(C(=O)N(CC)Cc3ccccc3)c(=O)c2c1,102.1,106.0,82.0,.
CC(C)(C)c1ccc(C(=O)N2CCN(c3cccc4[nH]ccc34)CC2)cc1,110.4,96.2,101.4,-9.1
CCN(CC)c1ccc2cc(-c3csnn3)c(=O)oc2c1,162.3,101.3,82.5,-32.2
CC(=O)Nc1cc(C(=O)NC2CC2)ccc1S(=O)(=O)c1ccc(Cl)cc1,95.8,105.2,82.3,2.1
CCCCC1CCC(C(=O)N2CC(C(N)=O)Oc3ccccc32)CC1 (configuration not stated),.,124.6,104.8,7.9
COc1cc(N(C(=O)c2ccco2)C(C(=O)NC2CCCC2)c2ccc(C)cc2)ccc1-n1cnnn1 (configuration not stated),104.8,94.2,71.1,-17.4
Cc1ccc(NC(=O)CC2Nc3cc(C)c(C)cc3NC2=O)c(C)c1 (configuration not stated),106.7,99.9,87.0,-36.3
CC1Oc2ccccc2OC1(O)c1ccc(Br)cc1 (configuration not stated),.,65.8,45.2,-6.8
CCCCNC(=O)CN1C(=O)c2cccnc2Sc2ccccc21,108.5,107.3,89.3,.
CNC(=O)COc1ccc(NC(=O)c2ccc(-c3nn(C)c(=O)c4ccccc34)cc2)cc1,101.4,85.5,90.5,-34.5

The list goes on:
Each structure is followed by: GIV Gai3 FP	Sa growth inh	Sa growth inh second temp	HCMV NEC inh
> Cc1ccccc1CSCc1nnc(-c2ccccc2)o1
    .	69.1	90.9	-9.4
> Oc1ccc2ccccc2c1C=Nc1ccccc1
    .	90.2	83.5	-24.8
> O=c1c(=O)n(-c2ccccc2)ccn1Cc1cccc(C(F)(F)F)c1
    102.9	102.6	97.7	-6.1
> CCOc1ccc(C(=O)NCCc2sc(-c3ccc(C)cc3)nc2C)cc1
    99.1	122.6	89.6	.
> CC1CC(=O)Nc2ccccc2N1C(=O)CSc1nnc(COc2ccccc2Cl)n1C1CC1 (configuration not stated)
    .	120.8	103.6	-14.7
> O=C(C1CC1c1ccccc1)N1CCOCC1 (configuration not stated)
    100.8	105.9	82.3	-3.3
> CCOC(=O)CSc1nc2ccccc2n2cnnc12
    109.6	101.4	89.8	.
> O=C(/C=C/c1cc(Cl)c2c(c1)OCCO2)N1CCCN(S(=O)(=O)c2ccc(F)cc2)CC1
    .	77.1	92.3	-12.0
> O=C(Cn1c(=O)c2cccn2c2ccccc21)NCCCN1CCCCC1
    102.0	86.5	83.1	.
> CCN(C(=O)C(C)Sc1nc(C)cs1)c1ccccc1 (configuration not stated)
    .	104.7	98.3	2.5
> O=C(O)CCC(=O)c1ccc(Br)cc1
    .	100.6	86.1	-40.2
> Cc1nc2cccnc2n1C1CCN(S(C)(=O)=O)CC1
    99.0&97.6	79.5	92.0	-17.3
> CCN1CCc2nc(N)oc2CC1
    100.7	.	.	-23.6
> COc1ccccc1Oc1ccc(NC(=O)c2cc3cc(Br)ccc3o2)cn1
    109.0	.	.	2.3
> C=CCNc1oc(CC(C)C)nc1C#N
    .	79.1	77.6	-4.8
> O=C1/C(=C/c2cccc(Cl)c2)CC/C1=C\c1cccc(Cl)c1
    101.9	107.9	93.0	.
> CCOC(=O)C1CCN(c2ccc3nncn3n2)CC1
    107.7	97.8	86.1	-19.6
> Cc1cc(C)c2c(-n3cccc3)nn(CCCC(=O)NCc3ccc(Cl)cc3)c2n1
    104.0	.	.	-20.7
> O=C(Cn1cc(SCc2cccc(Cl)c2)c2ccccc21)N1CCOCC1
    104.9	133.2	97.8	.
> CCC(C)NCc1ccc(C(=O)OC)o1 (configuration not stated)
    .	93.1	86.6	-5.2
> CCOc1ccccc1CNC(=O)Cc1cccs1
    109.9	79.2	91.0	-1.6
> CCN(CC(=O)NCc1cccs1)C(=O)C1=COCCO1
    .	77.4	94.6	-26.2
> CC1CN(S(=O)(=O)c2ccc(C(=O)N3CCc4ccccc43)cc2)CC(C)O1 (configuration not stated)
    .	75.7	88.9	-22.9
> COc1ccc(Cl)cc1NC(=O)CSc1nc(=O)n(Cc2ccco2)c2c1CCC2
    104.3	139.4	87.4	.
> COc1cn(CC(=O)Nc2ccccc2)c(CN2CCCCC2)cc1=O
    100.9	114.0	84.3	.
> Cc1ccc(-n2nc3c(N4CCCC(C(=O)NCc5ccccc5C)C4)nnc(C)c3c2C)cc1 (configuration not stated)
    113.0	128.1	89.6	.
> CCCCN(CC)C(=O)c1nn(C)c2c1CSc1ccccc1-2
    101.7	84.8	97.3	4.7
> Cc1cccc(N2CCN(C(=O)c3cnc4scc(C)n4c3=O)CC2)c1C
    108.6	.	.	-10.3
> O=C(NCc1cccnc1)c1cc(-c2cccnc2)nc2ccc(Br)cc12
    108.6	.	.	-100.1
> Cc1cccc(NC(=O)CSc2nccn2-c2ccc(C(=O)NCc3ccccc3)cc2)c1
    99.7	.	.	-15.2
> CC(=O)c1ccc(NC(=O)COCc2cc(-c3ccco3)on2)cc1
    105.7	108.0	97.1	.
> COc1ccc(C(=O)CCC(=O)Nc2ccc(OC)c(Cl)c2)cc1
    117.2	133.0	90.0	.
> Cc1oc2ccc(O)c(CN3CCN(C)CC3)c2c1C(=O)Nc1ccc(C(C)C)cc1
    100.6	96.1	93.3	7.7
> CCC(C)(C)NC(=O)Cc1ccc(C)cc1
    108.6	101.8	96.1	-12.6
> CC(=O)N1CC2c3ccccc3CCN2C1c1ccccc1 (configuration not stated)
    .	100.2	81.1	-6.6
> CCC(=O)N1CCc2cc(S(=O)(=O)NC(C(=O)Nc3ccc(C(C)=O)cc3)C(C)C)ccc21 (configuration not stated)
    102.1	99.9	92.3	-17.6
> CCOc1ccc(N=C2SC(C(=O)Nc3ccccc3OC)CC(=O)N2Cc2ccc3c(c2)OCO3)cc1 (configuration not stated)
    101.9	.	.	-22.9
> O=S(=O)(Nc1ccc(-c2ccc(N3CCCC3)nn2)cc1)c1ccc(F)cc1
    102.7	.	.	-71.2
> Cc1ccc(NC(=O)c2ccc3c(c2)NC(=O)CO3)c(C)c1
    98.4	.	.	-3.8
> CCOc1ccc2c(c1)C(SCC(=O)N1CCN(c3ncccn3)CC1)CC1(CCCCC1)O2 (configuration not stated)
    105.7	65.0	93.2	2.7
> Cc1ccc(Cl)cc1Nc1nn2c(=O)c3ccc(C(=O)Nc4ccc(F)cc4)cc3nc2s1
    103.3	96.2	98.2	.
> CN(C)c1ccc(/C=C(\C#N)NC(=O)c2ccccc2)cc1
    .	92.5	87.5	-16.8
> CC1CN(S(=O)(=O)c2ccc3c(c2)NC(=O)CC(=O)N3)c2ccccc2O1 (configuration not stated)
    104.9	88.4	86.5	.
> COc1cccc(CNS(=O)(=O)c2cnc(N)nc2)c1
    110.1	106.5	86.8	.
> CC(C)OC(=O)CN1C(=O)C(C)(C)Oc2ccc(C(=O)Nc3ccccc3)cc21
    107.7	84.4	89.2	2.8
> CCN(CC)S(=O)(=O)c1ccc2c(c1)nc(SCC(=O)Nc1cccc(C)c1C)n2CC
    .	94.6	96.6	-16.6
> CCN(CC)C(=S)SCc1cc(=O)n2ccsc2n1
    .	98.8	86.4	2.9
> COC(CN(C)C(=O)c1ccc2c(c1)NC(=O)c1ccccc1S2)OC
    105.3	90.0	86.8	.
> CC1=CCC2C(=O)N(C(C)c3ccccc3)C(=O)C2C1 (configuration not stated)
    103.2	108.5	85.6	-0.6
> O=C(/C=C/c1cccs1)N1CCN(Cc2ccc(Br)s2)CC1
    .	85.1	91.9	-23.5
> Cc1cc(NC(=O)c2cccs2)cc(C)c1OCC(=O)N1CCOCC1
    96.9	98.1	86.5	4.7
> COc1ccc(-n2c(SCC(=O)N3CCCCC3)nc3c([nH]c4ccccc43)c2=O)cc1
    102.6	114.4	85.9	-7.1
> Nc1nc(N)nc(-c2ccccc2C(F)(F)F)n1
    100.8	113.0	84.3	-2.4
> O=C1CCCCC1Cc1c(O)ccc2ccccc12 (configuration not stated)
    106.9	82.9	64.5	-23.2
> CCOC(=O)c1cc(-c2ccc(OC)c(S(=O)(=O)N3CCN(c4ccccn4)CC3)c2)on1
    100.5	.	.	-17.3
> Cc1ccc(-c2nc3cc(NC(=O)CC(C)C)ccc3o2)cc1Cl
    108.3	115.2	90.3	6.8
> COc1ccccc1CN(C)C(=O)CN1CCN(C/C=C/c2ccccc2)CC1
    .	78.6	61.6	-21.7
> Cc1cccc(C(=O)NCc2nc3ccccc3n2Cc2ccccc2Cl)c1
    102.9	96.8	81.3	-16.2

Record cards (already shown).
Listed for `N#Cc1ccc(OCC(=O)Nc2ccc(-c3cn4ccsc4n3)cc2)cc1` : GIV Gai3 FP: .; Sa growth inh: 114.8; Sa growth inh second temp: 73.7; HCMV NEC inh: -5.0
Listed for `Cc1ccc(O)c(C(=O)c2cnc3c(c2)CN(CCC(C)C)C(=O)N3)c1` : GIV Gai3 FP: .; Sa growth inh: 82.6; Sa growth inh second temp: 100.1; HCMV NEC inh: -0.7
Listed for `Cc1ccc(-c2nc3cc(NC(=O)CC(C)C)ccc3o2)cc1Cl` : GIV Gai3 FP: 108.3; Sa growth inh: 115.2; Sa growth inh second temp: 90.3; HCMV NEC inh: 6.8
